UCH37 inh = blocks the human deubiquitinase UCH37; Q9Y5K5; purified proteasome/UCH37, Ub-AMC cleavage fluorescence; inhibition, % (test concentration not listed); actives 0.33% (n = 330,000); AID 588478;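 active = mean of two replicates above 20%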;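 note: 0% = compound-free wells with enzyme and 100% = wells lacking proteasome; stock transfer was 100 nL into about 20 µL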
Target sequence (Q9Y5K5 whole entry, looked up): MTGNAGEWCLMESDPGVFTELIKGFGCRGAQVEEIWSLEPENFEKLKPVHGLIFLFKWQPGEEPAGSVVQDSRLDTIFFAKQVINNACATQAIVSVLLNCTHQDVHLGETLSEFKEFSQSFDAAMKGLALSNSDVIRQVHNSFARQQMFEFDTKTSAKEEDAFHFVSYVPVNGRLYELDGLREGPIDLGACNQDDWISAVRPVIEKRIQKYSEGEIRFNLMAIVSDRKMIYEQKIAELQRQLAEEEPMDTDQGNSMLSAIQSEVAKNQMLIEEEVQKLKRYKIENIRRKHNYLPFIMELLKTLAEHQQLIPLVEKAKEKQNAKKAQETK
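Material: Human UCH37 enzyme supplied as purified proteasome complex | Schedule: 30 min preincubation with enzyme, 25 min cleavage at room temperature | Detection: AMC fluorescence 355/460 nm | Measure: % inhibition of Ub-AMC cleavage fluorescence | Controls: Wells without proteasome as full block, compound-free enzyme plus substrate as uninhibited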
E coli growth = E. coli growth inhibition; Escherichia coli growth, OD600, 23 h; stronger effect = lower value; OD600 absorbance (test concentration not listed); actives 0.21% (n = 330,000);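 active = OD600 absorbance below the run mean of sample wells minus 3.6 SD, in any replicate, cut at about 0.56 in these data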;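 note: stock transfer was 300 nL into about 60 µL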
Active calls of the source: *. These rows are one share of the data. The share of hits here may be higher or lower than overall.

The line under a structure holds: UCH37 inh	E coli growth
CON=C(Cn1ncc(N2CCCC2)c(Cl)c1=O)c1ccc(Cl)cc1
→ 8.0	0.78
CC(CC(=O)NCc1ccco1)=NNC(=O)Cc1ccc(Cl)cc1
→ 32*	0.65
COc1ccc(C(C)=NNS(C)(=O)=O)c(OC)c1
→ -1.0	0.68
CN(N=C/C=C/c1ccccc1)C1=NS(=O)(=O)c2ccccc21
→ -8.4	0.7
O=[N+]([O-])c1ccc(C=NNS(=O)(=O)c2ccc(F)cc2)o1
→ 3.1	0.44*
CC1(C)CC(=NO)C(C(O)c2cccc([N+](=O)[O-])c2)C(C)(C)N1 (stereo not given)
→ 2.3	0.64
CCOc1cc(C=NNC(=O)CN2CCOCC2)ccc1OCc1ccccc1
→ 2.0	0.71
CCCc1ccc(S(=O)(=O)NN=Cc2ccc3c(c2)OCO3)cc1
→ 2.5	0.64
Oc1ccc(C=NN=Cc2ccc(O)cc2)cc1
→ 3.3	0.68
Cc1nn(-c2ccccc2)c(N=Cc2ccc(O)cc2)c1-c1ccccc1
→ 3.9	0.7
Cc1cc(C)nc(NN=Cc2c[nH]c3ccccc23)n1
→ 8.7	0.7
CN(C(=O)CON=Cc1ccc(Cl)cc1)c1ccccc1
→ 1.3	0.68
NC(=S)NN=Cc1cccc(C=NNC(N)=S)c1
→ 5.0	0.68
CSC(=S)NN=Cc1ccc(N(C)C)cc1
→ 0.7	0.67
COc1ccc(C=NNC(=S)SCN2C(=O)C3CCC(C)(C2=O)C3(C)C)cc1 (stereo not given)
→ 5.2	0.71
NS(=O)(=O)c1ccc(NN=C/C=C/c2ccccc2[N+](=O)[O-])cc1
→ 4.9	0.62
CC(=NNc1nc(-c2cc(C)ccc2C)cs1)c1cc2ccccc2oc1=O
→ 2.8	0.69
O=c1cnnc(NN=Cc2ccc3c(c2)OCO3)[nH]1
→ 4.5	0.72
O=C(NN=Cc1ccc(O)cc1)c1cc(C23CC4CC(CC(C4)C2)C3)[nH]n1
→ -0.7	0.7
COc1cccc(C=NNC(=O)c2cccs2)c1
→ -0.7	0.65
Cc1ccccc1OCC(=O)NN=Cc1ccco1
→ 2.8	0.64
O=C(Cc1cccc2ccccc12)NN=Cc1ccncc1
→ 1.4	0.71
Cc1cc(C)nc(NN=Cc2ccc(N3CCOCC3)cc2)n1
→ 14	0.72
CC(CC(=O)Nc1ccc2c(c1)OCCO2)=NNC(=O)COc1ccc(Cl)c(C)c1
→ 2.0	0.69
Cc1cc(C)n2nc(C(=O)NN=Cc3ccco3)nc2n1
→ 8.8	0.67
O=C(NN=Cc1cccc(O)c1)c1ccc(COc2cccc3cccnc23)cc1
→ 3.7	0.71
CC(=NNC(=S)NCc1ccccc1)c1ccc2ccccc2c1OC(F)F
→ 0.9	0.69
CN(C)C=NNC(=O)C1Cc2c(ccc3ccccc23)O1 (stereo not given)
→ 3.2	0.68
O=S(=O)(NN=C1CC(c2ccccc2)Oc2ccccc21)c1ccccc1 (stereo not given)
→ 4.0	0.73
O=C(CSc1ccc(C=NNC(=O)c2cccc(F)c2)o1)Nc1ccccc1
→ -3.6	0.68

The line under a structure holds: UCH37 inh	E coli growth
O=[N+]([O-])c1ccc(OC(F)F)c(C=Nn2cnnc2)c1
→ 4.9	0.67
CC(=NOCC(=O)OCC(=O)NC(=O)c1ccccc1)c1ccc2c(c1)OCO2
→ 3.9	0.72
[O-][n+]1c2c(nn1-c1ccccc1)C(=NO)CCC2
→ 0.6	0.7
COc1ccc(C(C)=NNC(=O)c2cc(-c3cccnc3)nc3ccccc23)cc1
→ -4.4	0.74
CCCCNC(=O)CCCCC(=O)NN=Cc1ccccc1Cl
→ -0.3	0.68
Cc1cc([N+](=O)[O-])nn1CC(=O)NN=Cc1ccccc1O
→ 1.2	0.61
Cc1cccc(C(=O)Oc2ccc(C=NNC(=O)c3ccc(O)cc3)cc2)c1
→ -0.1	0.69
CCC(C)C(C)=NNC(=O)C1COc2ccccc2O1 (stereo not given)
→ 3.0	0.73
O=C(NN=Cc1cc(Br)ccc1O)c1ccncc1
→ 4.6	0.66
CCN1C(=O)C(CC(=O)Nc2cccc(C(C)=O)c2)SC1=Nc1ccccn1 (stereo not given)
→ 0.7	0.73
CC(Cn1nnc([N+](=O)[O-])n1)=NNC(=O)c1ccccc1O
→ 4.2	0.68
Cc1cccc(NC(=O)CCC(=O)NN=Cc2ccco2)c1C
→ -0.1	0.69
CN1C(=O)C(=NOC(=O)c2ccccc2)c2ccccc21
→ 1.2	0.74
CC(CC(=O)Nc1ccc(N(C)C)cc1)=NNC(=O)c1ccccn1
→ 3.8	0.68
S=C(NCCc1ccccc1)NN=Cc1ccc(Cl)cc1
→ 1.9	0.72
Cc1ccccc1OCC(=O)NN=Cc1cc2ccccc2nc1Cl
→ 0.4	0.72
COc1cccc(C=NNC(=O)c2ccccc2NC(=O)c2ccco2)c1OC
→ 0.9	0.62
CC(CC(=O)Nc1ccccn1)=NNC(=O)c1ccc([N+](=O)[O-])cc1Cl
→ 4.3	0.7
CCCC=NNc1nnc(Cc2ccc(OC)c(OC)c2)c(=O)[nH]1
→ 2.1	0.67
CSC(=S)NN=C(C)c1ccc(Br)cc1
→ 4.9	0.68
CCCCCCn1c(=O)c(C(=O)NN=Cc2cccc(F)c2)c(O)c2ccccc21
→ 0.8	0.73
CC(=NNC(=O)c1nnn(-c2nonc2N)c1CSc1ccccc1)c1ccc2c(c1)OCO2
→ -4.3	0.69
CCOC(=O)C(CC)C(C)=NNC(=O)c1ccc([N+](=O)[O-])cc1 (stereo not given)
→ 1.9	0.71
Cn1c(=O)c2c(nc(NN=Cc3cccs3)n2C)n(C)c1=O
→ 14	0.63
N#CCC(=O)NN=C1CCCCC1C1CCCCC1 (stereo not given)
→ 2.2	0.67
COc1ccc(C(=NO)c2nccc3cc(OC)c(OC)cc23)cc1OC
→ 1.5	0.72
Cc1ccccc1C=NNC(=O)c1ccc(Cn2cccn2)o1
→ 3.0	0.63
Cc1cccc(C)c1OCC(=O)NN=Cc1ccc2c(c1)OCO2
→ 0.4	0.79
CC(=NNC(=O)CSc1ncccn1)c1ccc2c(c1)OCCO2
→ 2.1	0.68
COc1ccc(C(C)=NNc2nc3ccccc3nc2C)cc1
→ 6.2	0.64

The line under a structure holds: UCH37 inh	E coli growth
O=C(NN=Cc1cccnc1)c1ccccc1
→ 3.5	0.67
Cc1ccc(S(=O)(=O)NN=Cc2cccnc2)cc1
→ 4.3	0.67
O=C(Cc1ccccc1)NN=Cc1ccccn1
→ 1.4	0.69
COC(=O)c1ccccc1Sc1c(C=NOC(=O)c2ccccc2)c(C(F)(F)F)nn1C
→ -0.2	0.76
CC(=NNC(=O)c1cc2ccccc2cc1O)c1ccco1
→ 6.4	0.68
NC(N)=NN=Cc1cccc(Cl)c1Cl
→ 12	0.64
O=C(CSc1cccc2cccnc12)NN=Cc1ccc(F)cc1
→ -68	0.59
O=C(NN=Cc1ccc2c(c1)OCO2)c1ccc(Cn2cc(Br)c([N+](=O)[O-])n2)o1
→ 4.0	0.67
Cc1cc(=O)[nH]c(NN=C2CCCC/C2=C\c2ccccc2)n1
→ 5.1	0.72
CCOP(=O)(OCC)C(=NOC(=O)c1ccc(OC)cc1)C(N)=O
→ 5.5	0.67
COCc1c(C(=O)NN=C(C)c2ccncc2)nnn1-c1nonc1N
→ 1.0	0.68
Cc1ccc(C=NNC(=O)c2ccoc2C)o1
→ 6.1	0.68
Cc1nn(C)c(C(=O)NN=Cc2ccc(-c3ccccc3)cc2)c1Cl
→ 4.6	0.71
O=[N+]([O-])c1ccc(-c2csc(NN=Cc3cccnc3)n2)cc1
→ 5.1	0.72
O=C(NN=Cc1cccnc1)c1sc2ccccc2c1Cl
→ 1.9	0.67
CC(=NNC(=O)c1sc(NS(=O)(=O)c2ccc(C)cc2)nc1C)c1sc(N)nc1C
→ 7.5	0.68
O=C(NN=CC1CC=CCC1)c1cc(Br)ccc1O (stereo not given)
→ -25	0.68
Cc1nnc(NN=Cc2ccc(-c3ccc(Br)cc3)o2)n1N
→ 6.7	0.69
O=[N+]([O-])c1cccc(C=NN2CCN(Cc3ccccc3)CC2)c1
→ 5.5	0.65
CCOC(=O)C1=c2c(=Cc3ccncc3)c(N)c(C(=O)OC)n2C(=O)C(c2ccncc2)S1 (stereo not given)
→ 4.0	0.69
Clc1cccc(NN=Cc2ccncc2)c1
→ 7.2	0.58
CC(=NNS(=O)(=O)c1ccc(Br)cc1)c1ccncc1
→ 0.0	0.69
COc1ccc(C(C)=NNc2ccccc2Cl)c(O)c1
→ 3.5	0.65
O=C(NN=Cc1ccc(Br)cc1)c1ccc(Cn2cccn2)o1
→ -3.1	0.69
O=C(NN=Cc1ccc[nH]1)c1cccc([N+](=O)[O-])c1
→ 7.3	0.69
O=C(CN(Cc1ccccc1Cl)S(=O)(=O)c1ccc(Cl)cc1)NN=Cc1ccc(C(=O)O)cc1
→ 3.0	0.7
COc1ccccc1/C=C\C(=O)NCC(=O)NN=C(C)Cc1ccccc1
→ -9.6	0.65
COc1cccc(C=NNC(=O)c2nnn(-c3nonc3N)c2C(C)C)c1
→ 4.8	0.67
O=C(CC=NO)Nc1ccc(Oc2ccccc2)cc1
→ 2.8	0.67
CSc1ccc(C=NNC(=O)COc2ccc(Br)cc2Cl)cc1
→ -65	0.73

The line under a structure holds: UCH37 inh	E coli growth
O=[N+]([O-])c1ccccc1/C=C/C=Nn1c(-c2cc(-c3ccccc3)n[nH]2)n[nH]c1=S
→ 6.1	0.71
COc1ccc(N(CC(=O)NN=Cc2ccco2)S(=O)(=O)c2ccccc2)cc1
→ 4.3	0.69
CNc1nc2ccccc2n1N=Cc1cccc(OC)c1OC
→ -17	0.75
CN(C)N=Cc1ccc(P(c2ccc(C=NN(C)C)o2)c2ccc(C=NN(C)C)o2)o1
→ 5.6	0.69
Cc1ccccc1CN1C(=O)C(C)SC1=NN=Cc1ccco1 (stereo not given)
→ 5.7	0.65
Oc1ccccc1C=NNC(=S)NCCc1ccccc1
→ -2.1	0.7
O=C(CSc1nnc(-c2ccc(Cl)cc2)n1-c1ccc(Cl)cc1)NN=Cc1ccco1
→ 2.0	0.68
S=c1[nH]nc(-c2cc(-c3ccccc3)n[nH]2)n1N=C/C(Br)=C/c1ccccc1
→ 2.8	0.74
COc1cc(C=NNc2ncc(C(F)(F)F)cc2Cl)cc(OC)c1OC
→ -8.4	0.71
CCOc1ccc2nc(N=Cc3nc(-c4ccccc4)oc3O)sc2c1
→ -1.1	0.71
Nc1nnnn1CC(=O)NN=Cc1cc([N+](=O)[O-])ccc1Cl
→ 4.3	0.64
CC(=NOC(=O)c1ccccc1)c1cc(-c2ccc(Cl)cc2)no1
→ 3.7	0.75
CCN(CC)S(=O)(=O)c1cccc(C(=O)NN=C2CC(=O)CC(C)(C)C2)c1
→ 7.5	0.72
COC(C(=O)NN=Cc1ccc(OCC(=O)N2CCOCC2)cc1)c1ccccc1 (stereo not given)
→ 3.1	0.71
CCOc1ccc2ccccc2c1C=NNC(=O)c1ccc(C)nc1
→ -12	0.62
CC(=NNC(=O)CNC(=O)Cc1ccccc1)c1ccc(Cl)cc1
→ 2.6	0.71
Cc1nn(-c2ccccc2)c(C)c1C=NN1CCN(c2ccccn2)CC1
→ 5.6	0.64
COc1cc(C=NNc2ccccc2)ccc1OC(=O)c1cccs1
→ 4.0	0.68
Cc1ccc(C=Nc2sc3c(c2C#N)CCC3)o1
→ 5.2	0.72
CC(=NNC(=O)c1ccoc1C)c1cccc(NC(=O)C(F)(F)F)c1
→ 6.4	0.71
CCCOc1ccc(C=NNC(=O)CSCc2ccc([N+](=O)[O-])cc2)cc1OCC
→ 1.6	0.67
CCOc1ccc(C=NNC(=S)Nc2c(C)cccc2C)cc1
→ 4.5	0.76
CNC(=O)CCCCC(=O)NN=Cc1ccc(Cl)cc1Cl
→ 8.0	0.72
CCNC(=S)NN=Cc1cccc(C)c1
→ 4.5	0.7
C(=NN1CCN(Cc2cccc3ccccc23)CC1)c1cccs1
→ 1.9	0.72
CCOC(=S)NC(=NS(=O)(=O)c1ccc(C)cc1)c1ccccc1
→ 6.0	0.68
COc1ccc(C(=O)NCC(=O)NN=Cc2cn[nH]c2-c2ccccc2)cc1
→ 1.7	0.68
COc1ccc2nc(C)cc(SCC(=O)NN=Cc3cccc4ccccc34)c2c1
→ -3.6	0.65
COC(=O)c1ccc(C=NNc2nc(-c3ccccc3)cs2)cc1
→ -13	0.7
Cc1ccc2nc(NN=Cc3ccc([N+](=O)[O-])o3)nc(-c3ccccc3)c2c1
→ 4.2	0.79
O=C(CCN1CCN(C(c2ccccc2)c2ccccc2)CC1)NN=Cc1ccc(O)cc1
→ 4.0	0.7
CCOC(=O)c1sc(NN=Cc2ccccc2)nc1C
→ -13	0.7
COc1ccc(NC(=O)C(C)Oc2ccc(C(C)=NO)cc2)cc1 (stereo not given)
→ 3.8	0.69

Pulled by compound from above:
The line under a structure holds: UCH37 inh	E coli growth
CCOP(=O)(OCC)C(=NOC(=O)c1ccc(OC)cc1)C(N)=O
→ 5.5	0.67
CON=C(Cn1ncc(N2CCCC2)c(Cl)c1=O)c1ccc(Cl)cc1
→ 8.0	0.78
COc1ccc(C(=NO)c2nccc3cc(OC)c(OC)cc23)cc1OC
→ 1.5	0.72

Looked up above.
Reading of CCOc1ccc2nc(N=Cc3nc(-c4ccccc4)oc3O)sc2c1 under UCH37 inh: -1.1
Reading of O=[N+]([O-])c1ccccc1/C=C/C=Nn1c(-c2cc(-c3ccccc3)n[nH]2)n[nH]c1=S under E coli growth: 0.71
Reading of Cc1ccccc1CN1C(=O)C(C)SC1=NN=Cc1ccco1 (stereo not given) under UCH37 inh: 5.7
Reading of Cc1ccc2nc(NN=Cc3ccc([N+](=O)[O-])o3)nc(-c3ccccc3)c2c1 under E coli growth: 0.79
Reading of CCCOc1ccc(C=NNC(=O)CSCc2ccc([N+](=O)[O-])cc2)cc1OCC under E coli growth: 0.67
Reading of CNc1nc2ccccc2n1N=Cc1cccc(OC)c1OC under E coli growth: 0.75

Source: PubChem
